VDR inh = Inhibitors of the vitamin D receptor (VDR): qHTS; Vitamin D3 receptor (Homo sapiens), P11473; VDR-SRC2-3 peptide fluorescence polarization, 2 h; Potency, µM, for the others: max response, negative = inhibition, most hits filed as inhibitors; 400,000 tested, 0.93% active; active = well fitted inhibition curve with a large enough effect; inconclusive = small, poorly fitted or top-dose-only effect, or another doubt; inactive = no such curve, though single readings can be large or run the other way; also: series mostly up to about 120 µM
Target sequence (P11473 whole entry, looked up): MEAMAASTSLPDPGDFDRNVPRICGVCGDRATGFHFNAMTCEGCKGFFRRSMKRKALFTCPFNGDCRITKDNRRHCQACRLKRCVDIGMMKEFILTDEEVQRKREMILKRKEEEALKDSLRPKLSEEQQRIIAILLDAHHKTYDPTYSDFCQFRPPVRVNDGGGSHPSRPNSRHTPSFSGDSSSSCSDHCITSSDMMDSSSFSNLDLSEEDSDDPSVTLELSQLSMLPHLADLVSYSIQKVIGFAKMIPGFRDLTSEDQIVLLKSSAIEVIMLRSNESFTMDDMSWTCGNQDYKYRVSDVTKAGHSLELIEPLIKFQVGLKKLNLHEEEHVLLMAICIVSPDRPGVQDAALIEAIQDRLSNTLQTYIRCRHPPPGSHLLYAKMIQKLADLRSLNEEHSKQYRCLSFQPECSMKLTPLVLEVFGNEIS
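Signal is fluorescence polarization, reporting how far test compounds block the interaction of VDR with the SRC2-3 coregulator peptide after a 2 h room-temperature incubation.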
* marks the source's active call; other numbers are inactive results; ? = inconclusive; & = joins results of further samples; [ ] = another dose, or the depositor's remark. % is scaled to controls: 0 for no effect and ±100 for the full control effect; potency is read from the fitted curve at half-maximal effect. Not all compounds are listed; count on the stated rates, not on these rows.

Sample of the layout, four compounds:
VDR inh	smiles
-4%	Cc1ccc(NC(=O)c2cccc(OCc3c(C)noc3C)c2)cc1S(=O)(=O)Nc1ccccc1Cl
-7%	Cc1oc2c(C)c3oc(=O)c(CCC(=O)NCCCN4CCCC4=O)c(C)c3cc2c1C
-7%	COc1ccc(N2C(=O)CC(N3CCC(c4nc5ccccc5[nH]4)CC3)C2=O)cc1 (configuration not stated)
0%	COc1cccc(-c2cc(NCc3cccs3)ncn2)c1

The listing, repeating the preview:
VDR inh	smiles
-4%	Cc1ccc(NC(=O)c2cccc(OCc3c(C)noc3C)c2)cc1S(=O)(=O)Nc1ccccc1Cl
-7%	Cc1oc2c(C)c3oc(=O)c(CCC(=O)NCCCN4CCCC4=O)c(C)c3cc2c1C
-7%	COc1ccc(N2C(=O)CC(N3CCC(c4nc5ccccc5[nH]4)CC3)C2=O)cc1 (configuration not stated)
0%	COc1cccc(-c2cc(NCc3cccs3)ncn2)c1
-4%	CSc1sc(-c2n[nH]c(=S)n2C)c2c1C=CCC2
-11%	Cc1noc(NS(=O)(=O)c2ccc(NC(=O)COc3ccc(Cl)cc3Cl)cc2)c1C
19%	CC(=O)c1c(C)[nH]c(C(=O)Nc2cccc(S(=O)(=O)N3CCOCC3)c2)c1C
-15%	CC(C)(C)c1cc(C(=O)NN)n(Cc2ccc(F)cc2)n1
-5%	CC(C)CNS(=O)(=O)c1ccc(S(=O)(=O)N2CCC(N3CCCCC3)CC2)cc1
10%	Cc1nc2nc[nH]n2c(=O)c1CC(=O)O
?	O=C1/C(=C/c2ccc(F)cc2)SC(=S)N1Nc1ncc(C(F)(F)F)cc1Cl
15%	CCN(C[C@H]1N[C@@](C)(C(=O)OC)[C@H]2C(=O)N(C)C(=O)[C@@H]12)C(=O)Nc1ccc(C)cc1
6%	O=C(O)/C=C/C(=O)N(Cc1ccc2c(c1)OCO2)C1CC(=O)N(CCc2ccccc2)C1=O (configuration not stated)
-9%	CCOC(=O)c1csc(NC(=O)c2ccccc2)n1
-1%	CCn1c(COc2ccccc2)nnc1SCC(=O)c1cccc([N+](=O)[O-])c1
8%	COC(=O)c1cn(C(=O)c2ccc(C)cc2C)c2ccccc12
7%	CC(C)c1ccc(CNc2nc(-c3ccco3)nn2S(=O)(=O)c2ccc3ccccc3c2)cc1
-4%	CCc1ccc(NC(=O)c2ccc(CNS(=O)(=O)c3ccc4c(c3)C(C)(C)C(=O)N4C)cc2)cc1
-1%	Cn1c(Cn2c(=O)sc3ccccc32)nnc1SCC(=O)NCCc1ccccc1
17%	Cc1cc(NC(=O)CSc2nc3ccccc3c(=O)n2C2CCCC2)no1
4%	COc1ccc(NC(=O)N(C)C[C@H]2Oc3c(NC(=O)c4nc5ccccc5s4)cccc3C(=O)N([C@@H](C)CO)C[C@H]2C)cc1
-25%	C/C(=N\OCc1nc2ccccc2c(=O)n1/N=C/c1cc(C)cc([N+](=O)[O-])c1O)c1ccccc1
1%	O=C(COC(=O)/C=C/c1ccccc1[N+](=O)[O-])NNC(=O)c1ccc(F)cc1
1%	Cc1ccc(-c2c[n+](CC(=O)Nc3nc(-c4ccccc4)cs3)c3n2CCC3)cc1
-9%	COc1ccc(NC(=O)C2=CC(c3ccc(OC)cc3)=NS(=O)(=O)N2C)cc1
7%	CCCCN(C)Cc1c(C)[nH]c2ccc(Cl)cc2c1=O
12%	CC(=O)c1cccc(NC(=O)c2cccn2-c2nnc(N3CCCCC3)s2)c1
1%	COc1ccc(-c2cc(=O)oc3c(C)c(OC(=O)c4cccs4)ccc23)cc1
79µM*	CC1=NNC(=O)C1C(c1ccc(Cl)cc1)C(C#N)C#N (configuration not stated)
-3%	COc1ccc(/C=C2\Sc3ccc(C(=O)N4CCOCC4)cc3N(C)C2=O)cc1
11%	Cc1cc(NC(=O)c2cc(-c3cccs3)on2)nn1Cc1ccc(Cl)cc1
5%&13%	Cc1ccccc1NC(=O)CSc1nnc(C)c(=O)[nH]1
-4%	CCCCCC(=O)Nc1ccc(N2CCOCC2)c(S(=O)(=O)Nc2ccc(OC)cc2)c1
-13%	Cc1ccc(NS(=O)(=O)c2ccc(NC(=O)c3ccccc3C(=O)O)cc2)c(C)c1
7%	CCCn1c(N)c(Sc2ccccc2[N+](=O)[O-])c(=O)n(CCC)c1=O
2%	FC(F)(F)c1cc(-c2ccccc2)nc2cc(-c3ccc(Br)cc3)nn12
-4%	CNC(=S)N1CCN(c2cccc(OC)c2)CC1
-18%	Cc1ccc(/C=C/C(=O)O)cc1S(=O)(=O)N(C)CCO
4%	COc1ccc(Cc2nc3c4c(ncn3n2)Oc2c(ccc3ccccc23)C4c2ccc(OC)c(OC)c2)cc1 (configuration not stated)
18%	CC(=O)Nc1ccc(Nc2ncnc3c2cnn3C)cc1

A different layout for part of the listing above:
COc1ccc(NC(=O)C2=CC(c3ccc(OC)cc3)=NS(=O)(=O)N2C)cc1
  VDR inh: -9%

CCCCN(C)Cc1c(C)[nH]c2ccc(Cl)cc2c1=O
  VDR inh: 7%

CC(=O)c1cccc(NC(=O)c2cccn2-c2nnc(N3CCCCC3)s2)c1
  VDR inh: 12%

(cont.)
VDR inh	smiles
7%	C(#Cc1ccccc1)Cn1nnc2ccccc21
-9%	CC(NC(=O)Cc1ccc(S(=O)(=O)N2CCOCC2)s1)c1ccc(Cl)c(Cl)c1 (configuration not stated)
-13%	CC(NC(=O)c1ccc(C#N)cc1)C1CC2CCC1C2 (configuration not stated)
-9%	COc1ccccc1NC(=O)C(Cc1ccccc1)NS(=O)(=O)c1ccc2c(c1)CCN2C(C)=O (configuration not stated)
-12%	N#CCC(=O)Nc1ccc(C(=O)OCC(=O)Nc2ccccc2Sc2ccccc2)cc1
0%	CCn1ccc2cc(S(=O)(=O)N3CCC(C(=O)NCCc4ccccc4Cl)CC3)ccc21
62%[activator]	O=C(CNC(=O)C(c1ccccc1)c1ccccc1)OCC(=O)c1ccc2ccccc2c1
5%	O=C1NC(=O)C(Cc2ccc(O)cc2)N1 (configuration not stated)
33%[activator]	Cn1c(N)c(C(=O)COC(=O)c2ccc([N+](=O)[O-])o2)c(=O)n(C)c1=O
-13%	COc1ccccc1CNC(=O)COC(=O)C1CCN(S(=O)(=O)c2c(Cl)cccc2Cl)CC1
4%	CCOC(=O)C1=C(O)C(=O)NC(c2ccccc2)=C(OC2CCCCC2)C1
8%	CCOC(=O)Cn1c(=O)n(-c2ccccc2OC)c2nc(-c3cccc(F)c3)nc(C(N)=O)c21
28%	Cc1csc(C(=O)O)c1-n1cccc1
-9%	COc1ccc(-c2cc(C(=O)Nc3c(C)nn(Cc4ccccc4Cl)c3C)no2)cc1OC
12%	COc1ccc(O)c(-c2cc(C(F)(F)C(F)F)nc(-c3ccccc3)n2)c1
16%	Cc1cc(OCC(=O)Nc2cc(S(=O)(=O)N3CCOCC3)ccc2N2CCCC2)ccc1C(C)C
-4%	CSc1cccc(NC(=S)Nc2ccc(F)cc2)c1
24%	COc1cccc(-n2cnc3sc(C)cc3c2=O)c1
0%	Cc1onc(-c2ccccc2Cl)c1C(=O)Nc1ccccc1C(N)=O
4%	COc1ccc(-c2c[n+]3c(n2-c2c(C)n(C)n(-c4ccccc4)c2=O)CCCCC3)cc1
1%	Cc1ccc(-c2nn(-c3ccccc3)cc2C(=O)N2CCOCC2)cc1C
3%	O=C(c1ccc(Cl)cc1)N1CCN(C(=O)c2ccco2)CC1
-5%	COc1cc(CCCN2C(=S)NC[C@@H]2c2ccccc2)cc(OC)c1OC
-4%	NC(=O)C1CCCN(C(=S)Nc2cccc3ccccc23)C1 (configuration not stated)
-18%&-22%	C=C1CCN(C(Cc2ccccc2)C(=O)OC)S(=O)(=O)c2ccc(F)cc21 (configuration not stated)
-1%	COc1ccc2cc(CN(CC3CCCO3)S(=O)(=O)c3ccccc3Cl)c(=O)[nH]c2c1 (configuration not stated)
6%	O=C(COc1ccc(/C=N/NC(=O)c2ccc(O)cc2)cc1)Nc1cccc([N+](=O)[O-])c1
12%	CCOC(=O)N/N=C/c1ccc(N(CC)CC)cc1O
4%	COc1cccc(C(=O)OCC(=O)NCC2CCCO2)c1 (configuration not stated)
6%	Cc1cccc(Cn2c(SCCO)nc3c2c(=O)n(C)c(=O)n3C)c1
-3%	Cc1ccc(S(=O)(=O)N2CCN(C(=O)c3ccccn3)CC2)c(C)c1
-9%	COc1ccccc1-c1noc2ncnc(Nc3ccccc3C)c12
-8%	COc1ccccc1NC(=O)c1ccc(Cl)c(S(=O)(=O)N2CCCCC2)c1
-17%	CCN(CC1CCCN(CCc2cccc(OC)c2)C1)C(=O)c1ccoc1 (configuration not stated)
-10%	CCN1CCN(S(=O)(=O)c2c[nH]c(C(=O)OC)c2)CC1
-21%	N#C/C(=C\c1ccc(-c2ccc(Br)cc2)o1)C(=O)Nc1ccccc1O
-13%&-19%	CCC(=O)N1CCc2cc(S(=O)(=O)CCC(=O)NCc3ccc(C)cc3)ccc21
-3%	Cc1ccc(OCC(=O)N/N=C2\CCOc3c(C)cccc32)cc1
-3%	Cc1ccc2nc(-c3ccccc3F)c(Nc3ccc(Cl)cc3)n2c1
-7%&12%	COc1ccc(C)cc1NC(=O)CN1C(=O)COc2ccc(S(=O)(=O)N3CCOCC3)cc21
4%	Cc1cccc(NC(=O)CSc2nnc(C)c(=O)n2N)c1C
-12%	COC(=O)c1c(NC(=O)c2c(OC)cccc2OC)sc2c1CCCC2
20%	CCOc1ccc(OCCCC(=O)N(CC)CC(=O)Nc2c(F)cccc2F)cc1
-12%	Cn1c(=O)c2[nH]c(-c3cccnc3)nc2n(C)c1=O
2%	Cc1cc(C)c(C#N)c(N2CCN(Cc3ccc4c(c3)OCO4)CC2)n1
-6%	O=C(NC1CCCC1)C1CCN(S(=O)(=O)c2ccccc2)CC1
-13%	CCSc1nc(N2CCOCC2)c2c(c1C#N)CC(C)(C)N(C)C2
10%	COc1ccc(OC)c(NC(=O)N2CCCC(CNS(=O)(=O)c3cccs3)C2)c1 (configuration not stated)
1%	COCC(=O)N1CCN(c2ccc([N+](=O)[O-])cc2)CC1
-4%	O=C(COc1ccccc1Cl)N1CCN(C(=O)c2ccco2)CC1
-19%	CCN(C(=O)COC(=O)CNS(=O)(=O)c1ccccc1)c1ccccc1
50µM*	COc1cccc(-c2cncnc2Nc2ccc(F)cc2)c1
-11%	COc1ccccc1N1CCN(C(=O)c2c(-c3c(F)cccc3Cl)noc2C)CC1
-2%	CC(C)(C)c1ccc(C(=O)OCC(=O)NC2CC2)cc1
13%	CCCC(=O)NCCc1cc2cc(C)c(C)cc2[nH]c1=O
-4%	O=C(N/N=C/c1ccccn1)c1c[nH]c2ccccc12
-11%	Cc1[nH]c2ccccc2c1C(=O)C(=O)N(C)C1CCCCC1
7%	Cc1sc2ncn(CC(=O)N3CCN(c4ccccc4F)CC3)c(=O)c2c1S(=O)(=O)N1CCC(C)CC1
3%	O=C(c1cc(COc2cccc(C(F)(F)F)c2)on1)N1CCSCC1
0%	COC(=O)[C@H](CC(C)C)NC(=O)Cn1cnc(C(=O)Nc2ccc(C)c(C)c2)n1

The listing continues.
VDR inh	smiles
2%	Cc1ccc(NCc2nnc(SCC(=O)N3CCCCC3)n2CC2CCCO2)c(C)c1 (configuration not stated)
9%	COc1cccc(CNc2nc3nc(C)cc(C)n3n2)c1
-4%	C/C(=N\NC(=O)c1cc(C)nc2ccccc12)c1ccco1
8%	CN(C)c1ccc(/C=N/c2cc(-c3ccccc3)nn2-c2ccccc2)cc1
-26%	CC1CCCN(S(=O)(=O)c2cc(C(=O)NCc3ccco3)ccc2Cl)C1 (configuration not stated)
-14%	COc1ccccc1C1C(C(=O)c2cc3ccccc3o2)=C(O)C(=O)N1c1cc(C)on1 (configuration not stated)
-11%&-16%	COc1ccc(C2CC(O)(c3ccccc3)Oc3cc(OC)cc(OC)c32)cc1 (configuration not stated)
-4%&-4%	Nc1nc(Cl)nc2c1ncn2C1CC(O)C(CO)O1 (configuration not stated)
8%	CC1CCN(C(=O)CCCNC(=O)Cn2cnc3sc4c(c3c2=O)CCCC4)CC1
16%	O=C(COc1ccccc1)NCC(=O)Nc1ccc(S(=O)(=O)NCc2ccco2)cc1
-12%	CC(C)CSc1nnc2c3ccccc3n(C)c2n1
-2%	CCCCC(CC)CNC(=O)c1ncn[nH]1 (configuration not stated)
17%	CC(C)(C)C(=O)Nc1cccc(OC(F)(F)C(F)Cl)c1 (configuration not stated)
-28%	Cc1nc2c(C(=O)NCc3ccc4c(c3)OCO4)c[nH]n2c(=O)c1Cl
0%	CCCCn1c(N)c(N(CC(C)C)C(=O)CN(C)S(=O)(=O)c2ccc(F)cc2)c(=O)[nH]c1=O
2%	COc1ccc(Cl)cc1NC(=O)CCn1cnc2ccccc2c1=O
-19%	CCc1ccc(Nc2nnc(SC3CCOC3=O)s2)cc1 (configuration not stated)
-29%	COc1cc2cc(C(=O)N(C)C3CCS(=O)(=O)C3)[nH]c2cc1OC (configuration not stated)
4%	CCn1c(=NC(=O)CN2C(=O)CCC2=O)sc2c(C)cc(C)cc21
-10%	CCCc1[nH]n(-c2nc3ccccc3s2)c(=O)c1C=NCCN1CCOCC1
-12%	Cc1nn(-c2ccccc2)c2[nH]c(=O)c(CNCc3ccc4c(c3)OCO4)cc12
-6%	COC(=O)CCCC1=CC2=CC(=O)C(C)(OC(=O)c3cccs3)C(=O)C2=CN1CCCOC(C)C (configuration not stated)
-20%	COc1ccc2cc(C(=O)NC3CCCCC3)c(=O)oc2c1
2%	O=C(NCc1ccc2c(c1)OCO2)c1c[nH]c2ccc(S(=O)(=O)N3CCOCC3)cc2c1=O
-8%	CC1=C/C(=C/N(C)C)C(=O)O1
25µM*	O=C(Nc1ccccc1)c1nnsc1S(=O)(=O)c1ccc(Cl)cc1
